PINK1 expr mod: PINK1 expression modulation | PINK1 immunofluorescence, high-content cytometry, 24 h | Potency, µM (highest dose often 76.6 µM), for the others: top-dose activation (PINK1 increase), usual class: activators | 410,000 tested, 0.2% active; active = well fitted activation curve with a large enough effect; inconclusive = small, poorly fitted or top-dose-only effect; inactive = flat fitted curve, though single readings scatter; cell line not stated here;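 also: % of control where 0% means no effect; nearly all actives have a fitted effect of over 65% in size; a mitochondrial uncoupler was the plate control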
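Measures PINK1 amount and localization on or inside mitochondria by immunofluorescence. Stable cells get compounds at 5 concentrations for 24 hours before fixation and staining; CCCP controls included.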
ClpP mod: qHTS Assay for Activators of ClpP; purified B. subtilis ClpP, FRET peptide cleavage, 20 min; Potency, µM (titrated, usually from 57.5 µM), for the others: at the top dose activity change, negative = active; 340,000 tested, 1.9% active; AID 651965, 2013; active = well fitted falling curve with a large enough effect; inconclusive = small, poorly fitted or top-dose-only effect; inactive = no such curve, though single readings can be large or run the other way; also: the source files actives as falling curves though it sought activators and does not explain the sign; nearly all actives have a fitted effect of over 65% in size; many hits overshoot -100%
Target sequence (P80244 whole entry, looked up): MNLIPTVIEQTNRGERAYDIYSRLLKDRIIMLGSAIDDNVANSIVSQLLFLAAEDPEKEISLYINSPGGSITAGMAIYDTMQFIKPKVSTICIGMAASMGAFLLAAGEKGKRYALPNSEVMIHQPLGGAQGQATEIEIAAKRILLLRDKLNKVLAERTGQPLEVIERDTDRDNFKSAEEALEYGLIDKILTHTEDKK
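Buffer: 100 mM Tris/HCl pH8, 100 mM KCl, 0.05% low protease BSA, 2.5% glycerol, 0.01% Tween-20. ClpP 10 microg/mL final; 20 min RT; delta FRET normalized to ADEP and DMSO controls.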
* hit, by the source's call; ? = inconclusive. Potency is read from the fitted curve at half-maximal effect.

SMILES | PINK1 expr mod | ClpP mod
Cc1oc2ncnc(N3CCOCC3)c2c1C(=O)N(Cc1ccccc1)C(C)C | -3.8% | -1.9%
COC(=O)c1sc(NC(=O)c2cc3nc(-c4ccc(Br)cc4)cc(C(F)(F)F)n3n2)c(C(=O)OC)c1C | 2.9% | -23.4%
CCc1cccc(NC(=O)CCc2c(C)nc3c(-c4ccccc4)c(C)nn3c2C)c1 | 0.7% | -19.8%
Cn1cc(S(=O)(=O)c2cccc(Cl)c2)c(=O)c2cc(F)c(N3CCCCCC3)cc21 | 5.1% | ?
Cc1cc(C)cc(NC(=O)CSCc2cc(=O)c3cc(Cl)ccc3[nH]2)c1 | 4.0% | 0.3%
CCN(Cc1ccccc1)C(=O)c1cnn(-c2ccc(F)cc2)c1-n1cccc1 | -1.3% | -0.3%
CCOc1ccc(CNS(=O)(=O)c2cc(-c3cc(C)no3)ccc2C)cc1OC | -0.5% | -0.3%
Cc1cn(S(=O)(=O)c2ccc(F)c(Cl)c2)cn1 | 0.2% | 1.2%
Cc1ccc(C)c(NC(=O)CSc2nnc(CNC(=O)c3ccccc3)n2-c2ccccc2)c1 | -0.4% | 0.1%
Cc1ccc(N(Cc2cccs2)C(=O)c2ccco2)cc1 | -0.4% | -1.4%
CCOC(=O)c1cccc(NS(=O)(=O)c2cc3[nH]c(=O)c(=O)[nH]c3cc2C)c1 | 0.2% | -19.4%
Cc1cc2n(n1)CCCN2C(=O)Nc1ccc(Cl)cc1 | 2.5% | -0.7%
Cc1ccccc1OCC(=O)Nc1ccc2nc(SCC(N)=O)sc2c1 | -0.8% | -1.1%
CCN1CCc2c(sc(-n3cccc3)c2C(C)NC(=O)Nc2ccccc2C)C1 (stereo not given) | -0.7% | -13.3%
Cc1ccc(Cn2c(SCC(=O)C(C)(C)C)nc3ccsc3c2=O)cc1 | 0.6% | -0.4%
CCn1cc(C(=O)NCc2ccccc2Cl)c(=O)c2cc(S(=O)(=O)N3CCc4ccccc4C3)ccc21 | -0.6% | -9.1%
COc1ccc(OC)c(/C=C(/C#N)c2nc(-c3ccc(-c4ccccc4)cc3)cs2)c1 | 1.4% | -1.5%
CN(C)C1CN(Cc2cn(Cc3cccc(Cl)c3)nn2)S(=O)(=O)C1 (stereo not given) | -1.2% | 1.7%
CN(Cc1ccccc1)c1ccc(-c2nc(-c3cccnc3)no2)cc1[N+](=O)[O-] | 1.6% | -0.3%
CCOC(=O)c1cc2c(=O)n3ccccc3nc2n(Cc2ccco2)c1=NC(=O)c1ccc(Br)cc1 | 2.1% | 4.0%
CCc1ccccc1NC(=O)Nc1nnc(N2CCCC2)s1 | -1.0% | -0.8%
COc1ccc(-c2cc(C(F)(F)F)n3nc(C)c(-c4ccccc4)c3n2)cc1OC | -0.1% | -1.1%
CC(C)n1c(=O)c2oc3ccccc3c2n(Cc2ccccc2F)c1=O | -1.1% | ?
CC(=O)N1CCCc2cc(S(=O)(=O)N3CCC(C(=O)N(C)C4CCCCC4)CC3)ccc21 | -0.5% | 0.0%
COc1ccc(C)cc1NS(=O)(=O)c1ccc2oc(=O)c3ncn(C)c3c2c1 | 2.2% | 2.8%
COc1ccc(-c2c(C#N)c(SCC(=O)Nc3ccc(C)c(C)c3)nc(C)c2C(=O)Nc2ccc(Cl)cc2)cc1 | -0.7% | -12.1%
CCc1ccc(C(=O)c2cn(CC(=O)NCCc3ccc(OC)c(OC)c3)c3nc(C)ccc3c2=O)cc1 | 0.2% | -1.0%
O=C1NC[C@H](CCCCN2C[C@H](Cc3ccccc3)N(CCc3ccc(O)cc3)C(=O)C2=O)N(CCc2ccc(O)cc2)C1=O | 0.3% | -0.9%
COc1ccc(NC(=O)CN(C)S(=O)(=O)c2ccc3[nH]c4c(c3c2)CCCC4)cc1Cl | 3.0% | ?
Cc1oc2c(c1C(=O)Nc1cccc(Br)c1)C1=NCCN1C=N2 | 1.3% | -3.0%
O=c1[nH]c(=S)[nH]c2c1C(C1CCCCC1)OC(C1CCCCC1)C2 (stereo not given) | ? | 1.0%
Cc1c(C(=O)Nc2ccccc2Cl)oc2ccc(S(=O)(=O)N3CCCCCC3)cc12 | -1.0% | -9.8%
O=C(NCCc1csc(-c2ccc(F)cc2)n1)c1ccc(Br)o1 | 0.3% | -0.9%
O=S1(=O)N[C@H](Cc2ccccc2)COc2cccc(N3CCSCC3)c21 | 1.1% | -7.4%
O=c1c(-c2cc(-c3ccccc3)nc3c2COc2ccccc2-3)coc2ccc(Cl)cc12 | 0.9% | -3.1%
COc1ccc(-c2c(C)c3ccc(O)c(CN4CCOCC4)c3oc2=O)cc1OC | 0.2% | 4.9%
Cc1cccc(N2CCN(C(=O)c3cnn(-c4ccccc4)c3C3CCN(C(=O)OC(C)(C)C)CC3)CC2)c1C | 0.0% | 1.4%
O=C(O)c1ccc(Cn2c(SCc3ccc(F)cc3)nc3ccncc32)cc1 | 0.4% | -6.2%
O=C(Nc1ccc(F)cc1)Nc1ccc2snnc2c1 | 31.6µM* | -4.6%
O=C1CC(c2c(F)cccc2Cl)c2c(ccc3ccccc23)N1 (stereo not given) | 1.3% | -28.1%
CC(=O)N1CCc2cc(Br)cc(S(=O)(=O)N3CCC(C)CC3)c21 | 1.5% | -7.1%
CCOCCSc1c(C)cnc2c1c(=O)n(C)c(=O)n2C | 0.9% | -1.1%
COc1ccc(-c2noc(-c3ccc(NCc4cccnc4)c([N+](=O)[O-])c3)n2)cc1OC | 2.5% | 0.9%
Cc1cc(C)n(-c2nc3ccccc3nc2Nc2ccc(N(C)C)cc2)n1 | 5.1% | 1.1%
Cc1ccc(S(=O)(=O)N2CCc3cc(C(=O)N(C)Cc4ccccc4)ccc32)cc1 | 8.1% | -0.1%
CCOc1ccccc1NC(=O)Cn1c(=O)n(Cc2ccccc2)c(=O)c2c(C)c(C)sc21 | 0.8% | -2.0%
CCn1c2ccccc2c2cc(CN3CCN(Cc4ccccc4F)CC3)ccc21 | 3.0% | ?
O=C(CCn1c(=O)c2cccn2c2ccc(F)cc21)NCCc1ccc(Cl)cc1 | 7.8% | -13.1%
CCc1ccc(-c2nc(CN3CCC(C(=O)NCCc4ccc(Cl)cc4)CC3)c(C)o2)cc1 | 2.1% | 1.1%
O=C1CN(C(=O)COc2ccc(Cl)cc2)C(c2ccc(F)cc2)c2cc(Cl)ccc2N1 (stereo not given) | -1.4% | 0.3%

Further entries.
SMILES | PINK1 expr mod | ClpP mod
COc1ccc(OC)c(NC(=O)CC(=O)Nc2ccc3nc4n(c(=O)c3c2)CCCCC4)c1 | 3.1% | -1.5%
COCCn1c(SCC(=O)Nc2ccc(Br)cc2)nc2c([nH]c3ccccc32)c1=O | -4.3% | 0.9%
CCCCNC(=O)C(CC)n1c(SCc2cccc(F)c2)nc2ccncc21 (stereo not given) | 2.8% | -14.4%
CCCn1cc(S(=O)(=O)c2ccc(CC)cc2)c(=O)c2cc(F)c(N3CCN(C)CC3)cc21 | 0.0% | -8.0%
CCOC(=O)c1ccc(N2C(=O)c3n[nH]c(-c4cccs4)c3C2c2cccc(O)c2)cc1 (stereo not given) | -1.3% | -2.8%
Cc1cccc(OCC(=O)NCc2ccc3c(c2)CCN3C(=O)c2ccccc2)c1 | 0.8% | -1.3%
CCC(=O)N1CCc2cc(CNS(=O)(=O)c3ccc(CC(C)C)cc3)ccc21 | -0.1% | 0.3%
COc1cccc(C(=O)c2cn(CC(=O)Nc3cc(Cl)c(OC)cc3OC)c3nc(C)ccc3c2=O)c1 | 7.0% | -1.0%
COc1ccc(NC(=O)CSc2nnc(NC(=O)Nc3ccc(OC)cc3)s2)cc1 | 0.1% | -4.6%
CN1CCc2nc3sc(C(=O)c4ccc(F)cc4)c(N)c3cc2C1 | ? | -4.7%
CCCCCc1c(Cc2ccccc2)ncn1CCc1ccccc1OC | ? | -1.8%
CCc1nnc(NC(=O)c2nc(S(C)(=O)=O)ncc2Cl)s1 | 10.2% | 0.1%
Cc1ccc2oc(-c3cc(NC(=O)CC(C)C)ccc3Cl)nc2c1 | 1.1% | 4.5%
COc1ccc(C(=O)c2oc3ccccc3c2NC(=O)COc2cccc(C)c2)cc1 | -0.5% | -4.2%
COc1ccc(-c2nc(C)c(CCNC(=O)c3cccs3)s2)cc1OC | 0.5% | 4.5%
CC1=C(C(=O)Nc2cccnc2)C(c2ccccc2)n2nc(-c3ccc(O)cc3)nc2N1 (stereo not given) | 0.8% | -3.9%
O=C(C[N+]1(CCO)CCOCC1)c1cccc2ccccc12 | -0.6% | 0.0%
Cc1ccccc1CNC(=O)c1ccc(-c2nc(CS(=O)(=O)c3ccccc3)c(C)o2)cc1 | 2.9% | 4.2%
CCC(=O)N1c2ccccc2CC1C(=O)N1CCN(c2cccc(OC)c2)CC1 (stereo not given) | -0.1% | -1.9%
Cc1ccc(C)c(N2CCN(c3nc4ccccc4n4c(C)nnc34)CC2)c1 | -0.3% | 0.3%
Cc1cccc(N(C)C(=O)CSc2nc3ncccc3o2)c1 | -1.2% | 0.5%
COc1ccc(-c2cc(C(F)(F)F)nc(SCC(=O)NCCc3ccc(OC)c(OC)c3)n2)cc1 | 0.9% | -7.6%
O=C(CCS(=O)(=O)c1nc(-c2ccc3c(c2)OCO3)cc(C(F)(F)F)n1)Nc1ccccc1F | 3.9% | ?
COc1cc(NS(=O)(=O)c2ccc3[nH]c4c(c3c2)CCCC4)cc(OC)c1OC | ? | -2.3%
COc1cccc2cc(-c3nnc(Nc4c(F)cccc4F)s3)c(=O)oc12 | 0.9% | 1.1%
Cc1ccc2c(c1)c(=O)c(S(=O)(=O)c1ccc(F)cc1)cn2CC(=O)Nc1ccc2c(c1)OCO2 | -0.2% | -5.7%
Cn1nc(C(=O)NCc2ccccc2Cl)c2c1-c1ccccc1SC2 | 1.8% | -3.1%
COc1ccc(C2Nc3ccccc3C(=O)N2c2ccccc2F)cc1COc1ccc(NC(C)=O)cc1 (stereo not given) | 3.2% | 3.5%
COc1cccc(CNC(=O)CSc2nnc(C)c3c(C)n(-c4ccccc4)nc23)c1OC | 3.0% | -0.9%
CN(C)CCNc1ncnc2c1cnn2-c1cccc(Cl)c1 | 7.2% | -12.5%

Entries of single compounds from above:
COc1cccc2cc(-c3nnc(Nc4c(F)cccc4F)s3)c(=O)oc12 is listed as PINK1 expr mod = 0.9%; ClpP mod = 1.1%
COc1cccc(CNC(=O)CSc2nnc(C)c3c(C)n(-c4ccccc4)nc23)c1OC is listed as PINK1 expr mod = 3.0%; ClpP mod = -0.9%

(cont.)
SMILES | PINK1 expr mod | ClpP mod
O=S(=O)(NCCSc1nnnn1-c1ccccc1)c1ccc(F)cc1 | 0.0% | -0.8%
CCCCCn1c(=O)[nH]c2cc(C(=O)NCc3ccc(OC)cc3)ccc2c1=O | 1.3% | -10.8%
COc1ccc(-n2c(=O)c3c4c(sc3n(Cc3ccccc3)c2=O)CN(C(C)=O)CC4)cc1OC | 3.1% | -2.3%
O=S(=O)(NCCc1ccc(Cl)cc1)c1ccc(N2CCCCS2(=O)=O)cc1 | 0.5% | 1.7%
COc1cc(C(=O)Nc2sc3c(c2C(N)=O)CCC(C)C3)cc(OC)c1OC (stereo not given) | 0.7% | -10.7%
CCc1nnc(SCc2nc(-c3ccccc3)oc2C)c2cc3sccc3n12 | 0.6% | 2.7%
CC1=C(C(=O)Nc2cccnc2)C(c2ccccc2)n2nc(SCc3ccccc3F)nc2N1 (stereo not given) | -0.2% | -17.7%
COC(=O)Cn1c(=NC(=O)c2ccc3c(c2)OCCO3)sc2ccccc21 | 4.2% | -0.1%
CCOc1ccc(NC(=O)Cn2cc(C(=O)c3ccc(C)cc3)c(=O)c3cc4c(cc32)OCO4)cc1 | 2.9% | 0.9%
O=C(Cc1ccc(NC(=O)N2CCCCc3ccccc32)cc1)NCc1cccc(Br)c1 | -0.5% | -0.6%
CCCCSCCCNC(=O)c1cc(-c2cccnc2)nc2ccc(S(=O)(=O)N3CCC(C)CC3)cc12 | 0.3% | 1.4%
COc1ccc(N2CCN(Cc3cccn3-c3nnc(N4CCN(C5CCCCC5)CC4)s3)CC2)cc1 | -5.5% | -3.5%
COc1ccc(N(C(C)=O)C2SC(=O)N(c3ccccc3)C2=O)cc1 (stereo not given) | 0.3% | 3.4%
COc1ccc(C2CC(=O)NC(NC(=O)c3ccc(Br)cc3)=N2)c(OC)c1OC (stereo not given) | -3.8% | 1.7%
O=C(CCCCn1c(=O)c2ccccc2n(CC(=O)Nc2cccc(F)c2)c1=O)NCc1ccccc1Cl | 1.9% | -0.8%
CCCCNc1nc(NCc2ccccc2)nc2ccccc12 | 2.0% | -11.6%
COc1ccc(Cl)cc1NC(=O)CSc1nc2c([nH]c3ccccc32)c(=O)n1-c1ccccc1 | 1.9% | -28.6%

An excerpt of these results, with values under each structure:
The line under a structure holds: PINK1 expr mod | ClpP mod
- COc1ccc(N(C(C)=O)C2SC(=O)N(c3ccccc3)C2=O)cc1 (stereo not given)
 : 0.3% | 3.4%
- COc1ccc(C2CC(=O)NC(NC(=O)c3ccc(Br)cc3)=N2)c(OC)c1OC (stereo not given)
 : -3.8% | 1.7%
- O=C(CCCCn1c(=O)c2ccccc2n(CC(=O)Nc2cccc(F)c2)c1=O)NCc1ccccc1Cl
 : 1.9% | -0.8%
- CCCCNc1nc(NCc2ccccc2)nc2ccccc12
 : 2.0% | -11.6%
- COc1ccc(Cl)cc1NC(=O)CSc1nc2c([nH]c3ccccc32)c(=O)n1-c1ccccc1
 : 1.9% | -28.6%

Bioassay records (PubChem BioAssay)

The list is partial; the hit share may differ from the screen's.
